Assay outcomes deposited in PubChem by National Center for Advancing Translational Sciences (NCATS).
Lamin A splicing: changes lamin A minigene splicing in HeLa cells | HeLa LMNA splicing GFP/RFP minigene ratio, 48 h | Potency, µM (top dose mostly 46.1 µM), without a hit: at the top dose ratio change, negative = inhibition, actives largely listed as inhibitors | 200,000 tested, 0.01% active; active means well fitted inhibition curve with a large enough effect in the signal ratio, with a control signal flat, not every such curve was filed as active; inconclusive means small, poorly fitted or top-dose-only effect, or effect the other way, or a change in a side signal; the % refers to the signal ratio
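Read-out is the ratio of GFP to DsRed2 object intensity, acquired by 488 nm laser-scanning cytometry on HeLa lamin A-EGFP minigene reporter cells. Compound incubation 48 hrs at 37 °C in Opti-MEM with 2% FBS; DMSO 0.5% final.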
GAA spleen mod: lysosomal alpha-glucosidase (human) modulation; human spleen homogenate, 4-MU-alpha-glucoside fluorescence; Potency, µM (series often up to 79.9 µM), without a hit: at the top dose activity change, negative = inhibition, actives largely listed as inhibitors; 240,000 tested, 0.006% active; AID 2112;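 further: 0% = enzyme with vehicle and -100% = no enzyme basal signal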
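AC50 values come from Hill-equation fits of concentration-response data, normalized to no-enzyme and full-activity controls. Enzyme source: 1 ug human spleen homogenate; 1 mM fluorogenic 4-MU glucoside, pH 5.0 citrate buffer, 37 C, 40 min.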
GAA glycogen mod: GAA glycogen-cleavage inhibition or activation | Potency, µM (series often up to 76.4 µM), without a hit: at the highest dose activity change, negative = inhibition, hits mostly inhibitors | P10253 | 300,000 tested, 0.38% active | AID 2100 | recombinant GAA, glycogen substrate, Amplex Red glucose oxidase fluorescence;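 further: 0% = full enzyme reaction and -100% = no-enzyme basal signal; the screen sought inhibitors and activators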
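Natural-substrate format: glycogen cleavage by 4 nM human enzyme, glucose read by Amplex Red coupling (Ex 573, Em 610 nm). Normalized to enzyme and no-enzyme controls.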
GAA inhib: alpha-glucosidase (human) inhibition | purified human GAA, 4-MU-alpha-glucoside fluorescence | Potency, µM (highest dose often 76.9 µM), for the others: at the highest dose activity change, negative = inhibition, most hits filed as inhibitors | P10253 | AID 1466 | 200,000 tested, 0.005% active;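 further: plate controls were uninhibited enzyme wells for no effect and no-enzyme background for full effect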
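Activity normalized between no-enzyme (basal) and enzyme-only wells. Conditions: 4 nM human enzyme, 400 uM fluorogenic substrate, citrate/phosphate pH 5.0 with Tween-20, 20 min room temperature, compounds up to 77 uM.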
Numbers without * were called inactive; ? = inconclusive; . = no result given; & = joins results of further samples; [ ] = dose if it differs, or a comment. Unless noted, the call rests on the fitted dose curve; in most records, active means well fitted curve in the direction sought with a large enough effect; inconclusive means small, poorly fitted or top-dose-only effect, or another doubt; inactive means no such curve, though single readings can be large; an effect the other way counts as inactive or inconclusive. Unless noted, on the % scale 0 is the no-effect control and ±100 the full control effect; potency means the concentration at half of the fitted maximal effect. Only part of the results is shown; the hit share may differ from the screen's.

SMILES	Lamin A splicing	GAA spleen mod	GAA glycogen mod	GAA inhib
CCCCN(CCCC)CCC(O)c1cc2c(Cl)cc(Cl)cc2c2cc(C(F)(F)F)ccc12 (stereo unspecified)	?	0%[29.1 µM]	.	.
C[N+]1(C)C2CCC1CC(OC(=O)C(O)c1ccccc1)C2 (stereo unspecified)	.	-4%	.	.
C#C[C@]1(O)CCC2C3CCC4=C(CCC(=O)C4)C3CC[C@@]21C (stereo partly specified)	.	-3%	.	.
C[C@H]1O[C@@H](O[C@H]2[C@@H](O)C[C@H](O[C@H]3[C@@H](O)C[C@H](O[C@H]4CC[C@@]5(C)[C@H](CC[C@@H]6[C@@H]5C[C@@H](O)[C@]5(C)[C@@H](C7=CC(=O)OC7)CC[C@]65O)C4)O[C@@H]3C)O[C@@H]2C)C[C@H](O)[C@@H]1O	?	6%&-16%&-17%	5%[76.3 µM]	2%[15.4 µM]
CC1(C)SC2C(NC(=O)C(NC(=O)N3CCNC3=O)c3ccccc3)C(=O)N2C1C(=O)O (stereo unspecified)	.	1%	.	.
CCN(CC)[C@@H](C)CN1c2ccccc2Sc2ccccc21	-16%	4%[29.1 µM]	.	.
Nc1ccc(C(=O)O)cc1	-2%	-8%&7%	.	.
C[C@]12CCC(=O)C=C1CC[C@@H]1[C@@H]2C(=O)C[C@@]2(C)[C@H]1CC[C@]2(O)C(=O)CO	3%&-10%	10%&1%&1%	1%	-5%[15.4 µM]
NCC1OC(OC2C(N)CC(N)[C@@H](O)[C@@H]2OC2O[C@H](CO)[C@@H](O[C@@H]3OC(CN)C(O)C(O)C3N)C2O)C(N)C(O)C1O (stereo partly specified)	.	-10%	.	.
N[C@@H](CO)C(=O)NNCc1ccc(O)c(O)c1O	-5%	5%[29.1 µM]	.	.
CCCCNc1ccc(C(=O)O)cc1	.	-14%	1%	.
C[C@@](N)(Cc1ccc(O)cc1)C(=O)O	-3%	-9%	.	.
CCN(CC)C(C)CN1c2ccccc2Sc2ccccc21 (stereo unspecified)	.	13%	.	.
CN[C@H]1CC[C@@H](c2ccc(Cl)c(Cl)c2)c2ccccc21	.	1%&3%&-10%&3%	-1%[76.3 µM]	-8%[15.4 µM]
CC[C@H](CO)NCCN[C@@H](CC)CO	?	6%[29.1 µM]	.	.
CCCC(=O)Nc1ccc(OC[C@@H](O)CNC(C)C)c(C(C)=O)c1	?	-1%[29.1 µM]	.	.
CCCn1c(=O)[nH]c(=O)c2[nH]cnc21	-12%&-20%	-12%&-10%&-8%	-15%	-7%[15.4 µM]
NC(Cc1cc(I)c(Oc2ccc(O)c(I)c2)c(I)c1)C(=O)O (stereo unspecified)	.	-12%	.	.
C#C[C@@]1(O)CC[C@@H]2[C@@H]3CCC4=CC(=O)CC[C@@H]4[C@H]3CC[C@]21C	?	-7%[29.1 µM]	.	.
CC[C@@H](C)[C@H]1O[C@]2(CC[C@@H]1C)C[C@@H]1C[C@@H](C/C=C(\C)[C@@H](O[C@H]3C[C@H](OC)[C@@H](O[C@H]4C[C@H](OC)[C@@H](O)[C@H](C)O4)[C@H](C)O3)[C@@H](C)/C=C/C=C3\CO[C@@H]4[C@H](O)C(C)=C[C@@H](C(=O)O1)[C@]34O)O2	?	0%	.	.
Cc1nn(-c2ccccc2)c(Cl)c1/C=N/NC(=O)c1ccncc1	.	1%	2%	.
N[C@H](Cc1cc(I)c(Oc2ccc(O)c(I)c2)c(I)c1)C(=O)O	?	4%[29.1 µM]	.	.
CC1(C)S[C@@H]2[C@H](NC(=O)C(NC(=O)N3CCNC3=O)c3ccccc3)C(=O)N2[C@H]1C(=O)O (stereo partly specified)	.	.	2%	.
CC(C)(C)C(=O)OCOC(=O)[C@@H]1N2C(=O)[C@@H](N=CN3CCCCCC3)[C@H]2SC1(C)C	?	-8%[29.1 µM]	.	.
CSC(=N)N	-7%	6%&-4%	.	.
C[C@]12CCC(=O)C=C1CCC1C2C(=O)C[C@]2(C)C1CC[C@]2(O)C(=O)CO (stereo partly specified)	?	-6%	.	.
CN1CCCN=C1/C=C\c1cccs1	?	6%[29.1 µM]	.	.
CCN(CC)CCOCCOC(=O)C1(c2ccccc2)CCCC1	?	0%	.	.
C[C@@H]1C[C@H]2[C@@H]3CCC4=CC(=O)C=C[C@]4(C)[C@@]3(F)[C@@H](O)C[C@]2(C)[C@@]1(O)C(=O)CO	.	13%&7%&5%	.	.
CC(C)CN(C[C@@H](O)[C@H](Cc1ccccc1)NC(=O)O[C@H]1CCOC1)S(=O)(=O)c1ccc(N)cc1	?	-6%	.	.
CC1(C)S[C@@H]2[C@H](NC(=O)C(N)c3ccccc3)C(=O)N2[C@H]1C(=O)O (stereo partly specified)	?	-4%[29.1 µM]	.	.
COc1c2occc2cc2ccc(=O)oc12	?	15%	-1%	-2%
C[C@](N)(Cc1ccc(O)cc1)C(=O)O	?	3%&3%	.	.

A draw from above in order of length of the SMILES, rising:
SMILES	Lamin A splicing	GAA spleen mod	GAA glycogen mod	GAA inhib
CN1CCCN=C1/C=C\c1cccs1	?	6%[29.1 µM]	.	.
COc1c2occc2cc2ccc(=O)oc12	?	15%	-1%	-2%
C[C@]12CCC(=O)C=C1CCC1C2C(=O)C[C@]2(C)C1CC[C@]2(O)C(=O)CO (stereo partly specified)	?	-6%	.	.
CC1(C)S[C@@H]2[C@H](NC(=O)C(N)c3ccccc3)C(=O)N2[C@H]1C(=O)O (stereo partly specified)	?	-4%[29.1 µM]	.	.
CC(C)(C)C(=O)OCOC(=O)[C@@H]1N2C(=O)[C@@H](N=CN3CCCCCC3)[C@H]2SC1(C)C	?	-8%[29.1 µM]	.	.
CC(C)CN(C[C@@H](O)[C@H](Cc1ccccc1)NC(=O)O[C@H]1CCOC1)S(=O)(=O)c1ccc(N)cc1	?	-6%	.	.
C[C@@H]1C[C@H]2[C@@H]3CCC4=CC(=O)C=C[C@]4(C)[C@@]3(F)[C@@H](O)C[C@]2(C)[C@@]1(O)C(=O)CO	.	13%&7%&5%	.	.
